StopGo RLuc = lowers the Renilla signal of an FMDV 2A StopGo reporter; HEK cells with a luciferase reporter of 2A StopGo recoding; Potency, µM (series often up to 57.5 µM), for inactives: at the highest dose signal change, negative = less light; 0.32% of 120,000 active; active means well fitted falling curve with a large enough effect; inconclusive means small, poorly fitted or top-dose-only effect; inactive means no such curve, though single readings can be large or run the other way; also: nearly all actives have a fitted effect of over 55% in size; overnight with compound
2A firefly = lowers the firefly signal of an FMDV 2A StopGo reporter; 0.23% of 120,000 active; AID 1745856; Potency, µM (series often up to 57.5 µM), for inactives: at the highest dose signal change, negative = less light; HEK cells with a luciferase reporter of 2A StopGo recoding; active = well fitted falling curve with a large enough effect; inconclusive = small, poorly fitted or top-dose-only effect; inactive = no such curve, though single readings can be large or run the other way; also: nearly all actives have a fitted effect of over 60% in size; overnight with compound
Active calls of the source: *; ? = inconclusive; & = joins results of further samples; [ ] = dose if it differs, or a comment. % is scaled to controls: 0 for no effect and ±100 for the full control effect; potency is read from the fitted curve at half-maximal effect.

SMILES	StopGo RLuc	2A firefly
O=C(Nc1ccc(S(=O)(=O)Nc2cnc3ccccc3n2)cc1)c1ccccc1	-29%	3%
CC(C)(C)c1ccc(C(=O)N(C2CCCCC2)C2CCCCC2)cc1	-1%	-5%
Cc1ccc2[nH]c(C)c(CC(=O)NC(C)c3ccc(C)o3)c2c1 (centres undefined)	25%	-1%
Cc1noc(C)c1COc1cccc(C(=O)Nc2ccc(S(=O)(=O)NCc3ccco3)cc2)c1	49%	13%
CSc1nnc(NC(=O)Cc2coc3cc(C)ccc23)s1	112%[activator]	164%[activator]
CNS(=O)(=O)c1ccc(C(=O)N2CCCC2c2ccc3c(c2)OCCCO3)cc1 (centres undefined)	6%	5%
CC(C)CC(CNC(=O)Cc1n[nH]c(=O)c2ccccc12)N1CCOCC1 (centres undefined)	-18%	-11%
CC1CCN(C(=O)Cc2n[nH]c(=O)c3ccccc23)CC1	3%	17%
CCc1ccc(NC(=O)CSc2nc3ccccc3nc2Cc2ccc(C)cc2)cc1	1%	-1%
CC(=O)c1c(C)oc2ccc(N(C(=O)c3ccncc3)S(=O)(=O)c3ccc(C)cc3C)cc12	189%[activator]	27%
Cc1cc2nc(CSc3ccc(NC(=O)c4ccccc4C(F)(F)F)cc3)cc(=O)n2o1	67%[activator]	-3%
COc1ccc(Br)cc1CNC(=O)c1ccc(-n2c(C)cc3c2CCC(C)C3)cc1 (centres undefined)	19%	-1%
Cn1c(NCCN)nc2c1c(=O)n(Cc1ccccc1)c(=O)n2C	-4%	-1%
COCc1ccc(C(=O)NCc2ccc(C#N)cc2)cc1	3%	21%
Cc1ccc(S(=O)(=O)[C@H]2CS(=O)(=O)C[C@@H]2NCCc2ccc(Cl)cc2)cc1	6%	-8%
COc1ccc(C(=O)/C=C/c2ccc(OCC(=O)O)c(OC)c2)cc1F	-10%	-1%
Cc1cc(C)n(-c2nc3ccccc3nc2N2CCN(C(=O)c3ccccc3)CC2)n1	53%[activator]	10%
CC(C)OCCCn1c(SCC(=O)Nc2ccc(F)cc2)nc2c(sc3ccccc32)c1=O	29%	7%
O=C(NCCc1ccc(Cl)cc1)c1ccc2c(c1)N(Cc1ccc(F)cc1)C(=O)CS2	-20%	20%
Cc1cc(C)c2c(=O)[nH]c(SCC(=O)N3CCCCC3)nc2n1	-2%	-3%
COc1cccc(C(=O)Nc2oc3ccccc3c(=O)c2-c2ccccc2)c1	-4%	12%
CCCCCCCC1CCC(c2ccc(C(=O)CCN(C)C)cc2)CC1 (centres undefined)	-8%[1.06 µM]	-11%
CNCc1ccc(-c2ccccc2)o1	16%	?
Cn1c(=O)c2cc(C(=O)Nc3cccc(C#N)c3)sc2c2ccccc21	-13%	-19%
CCN1CCN(CCOc2ccc3c(=O)c(-c4ccccc4)coc3c2)CC1	?	74%[activator]
(further entries)
SMILES	StopGo RLuc	2A firefly
CC1CCCC[C@@]12CCc1cc3c4c(c(=O)oc3cc1O2)CCC4 (some centres undefined)	3%	24%
c1c[nH]c(-c2ccn[nH]2)c1	-1%	56%[activator]
Cc1nc(NC(=O)c2cc(F)ccc2Br)sc1C	4%	203%[activator]
CCc1ccccc1NC(=O)CSC1=NS(=O)(=O)c2ccc(C)cc2N1	?	3%
Cc1ccc(Sc2ccc(N3CCCC(C(=O)Nc4ccc(F)cc4F)C3)nn2)cc1 (centres undefined)	16%	2%
CN(Cc1nc2ccsc2c(=O)[nH]1)C(=O)c1cnn(-c2ccc(F)cc2)c1-n1cccc1	?	?
Cc1ccc2onc(CC(=O)N3CCN(c4cccc(C)c4C)CC3)c2c1	-3%	-5%
COc1ccccc1Nc1nc(-c2ccc(CNC(C)=O)cc2)cs1	9%	177%[activator]
CCOC(=O)[C@]12CCCCC/C=C\1N(CCc1ccc(Cl)cc1)C(=O)[C@H]2CC(=O)NCc1ccc(C)o1	20%	-17%
Cc1ccc(-n2nc3c(=O)n(CC(=O)NCC(C)c4ccccc4)nc(C)c3c2C)cc1 (centres undefined)	?	-25%
COc1ccc(CNC(=O)c2ccc3nc(C(C)C)oc3c2)cc1OC	45%[activator]	18%
CCc1noc(CN2CCC(c3nc4ccccc4s3)CC2)n1	-21%	0%
CCOc1ccc(-n2cc(-c3ccccc3)c3c(NC4CCCCC4)ncnc32)cc1	?	-16%
Cc1cccc(-c2noc(CNC(=O)Nc3cccc4ccccc34)n2)c1	-7%	-1%
CCOc1ccc(NC(=O)c2ccc(-c3nc(COc4ccccc4)c(C)o3)cc2)cc1	-11%	7%
Cc1cccc(N2CCN(c3ncnc4onc(C)c34)CC2C)c1 (centres undefined)	-3%	?
CC(=O)Nc1ccc(NC(=O)NC(C)c2cccc(Cl)c2)cc1 (centres undefined)	1%	-2%
CCOC(=O)c1ccccc1NC(=O)CN1CCCN(Cc2cccc(Cl)c2)S1(=O)=O	-3%	-20%
CC(=O)NNC(N)=S	-11%	-6%
CC(C)(C)c1ccc(C(=O)Nc2ccc(S(=O)(=O)Nc3cnc4ccccc4n3)cc2)cc1	129%[activator]	86%[activator]
O=C(NCc1ncc(-c2ccccc2)o1)C1CCCCC1	67%[activator]	161%[activator]
CCOC(=O)c1cc2c(C)cc(C)cc2[nH]1	-6%[1.06 µM]	102%[activator]
N#Cc1nc(-c2ccccc2Cl)oc1NCc1ccccc1Cl	0%	0%
COC(=O)CC1Oc2ccc(Cl)cc2-n2cc(-c3ccccc3)nc21 (centres undefined)	0%	-5%
Cc1cccc2sc(N(CCN(C)C)C(=O)c3ccc4c(c3)OCCO4)nc12	-13%	21%
(continued)
SMILES	StopGo RLuc	2A firefly
CN(C(=O)c1cccc(OC(F)F)c1)C1CCCCC1	8%	0%
CCOc1cccc(CC(=O)NCc2ccc3c(c2)CCN3C(=O)c2ccc(F)cc2)c1OCC	-6%	-22%
Cc1cc(C)n2c(Nc3c(C)cccc3C)c(-c3ccsc3)nc2n1	-9%	-24%
Cc1ccc(SCC(=O)c2ccc(Cl)cc2)cc1	11%	103%[activator]
CCOC(=O)c1c(NC(=O)CCCOc2ccc(C(C)(C)C)cc2)sc2c1CCCC2	-6%	-8%
CC1CCCN(C(=O)Cn2c(=O)oc3cc(S(=O)(=O)N4CCCCC4)ccc32)C1 (centres undefined)	16%	-5%
CC(=O)NC(=S)NNC(=O)c1ccc(C(C)(C)C)cc1	4%	133%[activator]
CCCCc1ccc(NC(=O)CSc2nc3ncccc3[nH]2)cc1	-15%	12%
CC(C)NC(=O)C1CCC(Cn2c(=O)c3sccc3n(CC(=O)N3CCCC3)c2=O)CC1 (centres undefined)	-8%	-8%
CCc1cccc(Nc2nc(N)c(C(=O)c3ccccc3)s2)c1	53%[activator]	203%[activator]
Cc1ccc(-c2cc(C(=O)NCC3CCCO3)c3ccccc3n2)c(C)c1 (centres undefined)	2%	15%
Cc1ccc2c(c1)c(=O)c1ccccc1n2CCCC(=O)Nc1ccc(Cl)c(Cl)c1	-12%	-15%
CC1CCN(S(=O)(=O)N2CCC(C(=O)c3ccc4c(c3)OCCO4)CC2)CC1	3%	11%
CCc1cccc(NC(=O)CSc2ncc(-c3ccc(F)cc3)o2)c1	18%	15%
COc1cc2c(cc1OC)-c1nnc(C(F)(F)F)n1C(C)(C)C2	7%	17%
COCCNC(=O)/C(C#N)=C\c1cccc(C(F)(F)F)c1	31%	14%
Cc1ccc(CNC(=O)CCN2C(=O)COc3ccc(C)cc32)cc1	2%	-4%
COc1ccc(NC(=O)Cc2cc(Cl)c3c(c2)OCCO3)cc1S(=O)(=O)N(C)C	?	?
Cc1ccc(C)c(NC(=O)CN(C)S(=O)(=O)c2cccc3nsnc23)c1	10%	4%
COc1ccc(CNc2ccc(C(=O)O)cc2C)c(OC)c1	5%	135%[activator]
CCN(CC)c1nc2ccccc2nc1C(=O)Nc1ccc(OC)c(OC)c1	13%	16%
COC(=O)CC(NC(=O)c1ccc2c(c1)OCCO2)c1ccc(F)cc1 (centres undefined)	6%	-1%
Cc1ccc(Sc2c(C(=O)NCc3cccc(F)c3)[nH]c3ccccc23)cc1	105%[activator]	4%
CC(=O)NCCNC(=O)Cc1c(C)[nH]c2ccc(F)cc12	-8%	-2%
CN(C)S(=O)(=O)c1ccc(C(=O)NC2CC(=O)N(c3ccc4c(c3)OCCO4)C2)cc1 (centres undefined)	4%&-3%	-1%&-10%

Look-ups from above:
CCOc1cccc(CC(=O)NCc2ccc3c(c2)CCN3C(=O)c2ccc(F)cc2)c1OCC in StopGo RLuc = -6%
CCCCc1ccc(NC(=O)CSc2nc3ncccc3[nH]2)cc1 in StopGo RLuc = -15%
CN(C)S(=O)(=O)c1ccc(C(=O)NC2CC(=O)N(c3ccc4c(c3)OCCO4)C2)cc1 (centres undefined) in 2A firefly = -1%&-10%
Cc1ccc(Sc2c(C(=O)NCc3cccc(F)c3)[nH]c3ccccc23)cc1 in StopGo RLuc = 105%[activator]
Cc1ccc2c(c1)c(=O)c1ccccc1n2CCCC(=O)Nc1ccc(Cl)c(Cl)c1 in StopGo RLuc = -12%
CC(=O)NCCNC(=O)Cc1c(C)[nH]c2ccc(F)cc12 in StopGo RLuc = -8%
Cc1ccc(-c2cc(C(=O)NCC3CCCO3)c3ccccc3n2)c(C)c1 (centres undefined) in 2A firefly = 15%

(listing goes on)
SMILES	StopGo RLuc	2A firefly
Cc1cc(=O)oc2cc(OC(C)C(=O)NC3(C#N)CCCCC3)ccc12 (centres undefined)	-4%	1%
O=C(c1ccccc1)N1CCN(C(=O)c2[nH]c3ccccc3c2Cl)CC1	-8%	-5%
COC(=O)c1c(C)[nH]c(C(=O)N2CCCC2c2ccc3c(c2)OCCO3)c1C (centres undefined)	203%[activator]	-4%
COc1ccc2c(c1)cc(C(=O)NCc1ccc(C)cc1)n2C	-3%	7%
Cc1c2cnn(CC(=O)N3CCN(c4ccccc4)CC3)c(=O)c2c(C)n1Cc1ccc(F)cc1	-8%	-6%
COc1ccc(OC)c(/C=C2\Oc3cc(OS(C)(=O)=O)ccc3C2=O)c1	18%	20%
Brc1ccc(-c2csc3ncnc(Sc4nnc(C5CC5)o4)c23)cc1	?	25µM*
CC1(C)CCCC(C)(C#CCN(Cc2ccccc2)Cc2ccccc2)O1 (centres undefined)	11%	-2%
CCCCCCCC/C=N/NC(=O)c1ccc(C(C)(C)C)cc1	-10%	0%
Cc1nc2sc3c(c2c(-c2ccc(Cl)cc2)c1C(N)=O)CCC3	-8%	-8%
O=C(C1CCCCC1)N1CC(=O)N2CCCc3ccccc3C2C1 (centres undefined)	3%	-21%
CCOc1ccc(C(=O)c2cn(CC(=O)Nc3ccc(C)c(Cl)c3)c3ccc(OCC)cc3c2=O)cc1	-3%	-16%
CCOc1ccc(C(=O)NC23CC4CC(CC(C4)C2)C3)cc1	-3%[1.06 µM]	0%
Cc1ccc(-c2nn(C)c(=O)c3c2CCCC3)cc1S(=O)(=O)N1CCCCC1	24%	14%
COc1ccc(N2CC(NC(=O)c3ccco3)CC2=O)cc1 (centres undefined)	-4%&-6%	1%&-17%
COc1ccccc1-n1cc(C(=O)c2cc(C)ccc2O)cc(C#N)c1=O	29%	-3%
Cc1ccc(CCNC(=O)c2cc3ccccn3n2)cc1	-6%	92%[activator]
COCCOc1nc2c(c(=O)n(C)c(=O)n2C)n1Cc1ccc(C)cc1	3%	19%
Oc1cccc(C(O)CNC/C=C/c2ccccc2)c1 (centres undefined)	-1%	0%
COc1ccc(C(=O)N[C@H]2C[C@@H]3CC[C@H]2C3)cc1	8%	0%
CC1=CC(C)C2(CO)COC(c3ccccc3)C1C2C (centres undefined)	3%	-14%
O=C(Nc1ccccc1)N1CCN(CCc2ccccc2)CC1	-2%	0%
CCCNC(=S)Nc1cccc(C)c1	156%[activator]	0%
N#CC1(C(=O)Nc2cccc(Br)c2)CCCC1	18%	0%
O=C(CSc1cn(CC(=O)N2CCCCC2)c2ccccc12)NCc1ccccc1	14%	17%

Four of these compounds, set out differently.
> COc1ccc(CNc2ccc(C(=O)O)cc2C)c(OC)c1
  StopGo RLuc: 5%
  2A firefly: 135%[activator]

> O=C(CSc1cn(CC(=O)N2CCCCC2)c2ccccc12)NCc1ccccc1
  StopGo RLuc: 14%
  2A firefly: 17%

> Cc1ccc(-c2cc(C(=O)NCC3CCCO3)c3ccccc3n2)c(C)c1 (centres undefined)
  StopGo RLuc: 2%
  2A firefly: 15%

> COc1ccc(N2CC(NC(=O)c3ccco3)CC2=O)cc1 (centres undefined)
  StopGo RLuc: -4%&-6%
  2A firefly: 1%&-17%

The results go on.
SMILES	StopGo RLuc	2A firefly
COc1cccc(N2CCN(C(=O)c3cnn(-c4ccc(C)cc4C)c3C3CCN(C(=O)OC(C)(C)C)CC3)CC2)c1	14%	-20%
COC(=O)c1ccc(NS(=O)(=O)c2ccc(-n3cccn3)cc2)cc1	46%[activator]	5%
CCOc1ccc(CNCc2c(C(=O)O)c(C)n(Cc3ccccc3Cl)c2C)cc1	-8%	-10%
CC(C)N(Cc1ccccc1)C(=O)CN1C(=O)COc2ccc(S(=O)(=O)NC3CCCC3)cc21	118%[activator]	-18%
COc1ccccc1C1C2=C(CC(C)(C)CC2=O)Nc2n[nH]c(-c3ccccc3)c21 (centres undefined)	1%	10%
Cc1c(-c2ccccc2)c(=O)oc2cc(OCC(=O)OC(C)C)ccc12	-6%	4%
Cc1oc(-c2ccccc2)nc1C(=O)OCC(=O)NCc1ccc(Cl)cc1	-4%	-3%
O=C(CC1C(=O)N(c2ccccc2)C(=O)N1CCc1cccs1)Nc1ccc(F)cc1 (centres undefined)	82%[activator]	-15%
O=C(NC(NC(=O)c1ccccc1F)c1ccc(Br)cc1)c1ccccc1F	55%[activator]	-9%
COc1ccc(CNC(=O)c2nn(C)c3c2CS(=O)(=O)c2ccccc2-3)cc1	20%	-18%
CCCn1c(=O)n(CC(=O)Nc2ccccc2-c2ccccc2)c(=O)c2c1nc(C)n2CCOC	1%	-6%
Cc1cccc2c(C(=O)O)cc(-c3ccc(-c4ccccc4)cc3)nc12	-11%[1.06 µM]	?

The list is partial; the hit share may differ from the screen's.
